TRPML1 ag = agonists of human TRPML1 channel; TRPML1-expressing cells, Ca2+ dye fluorescence, FDSS; host cell line not named in the record; reference of the full effect not given here; hit rate 0.12% among 410,000; activation, % (no concentration beside the values); in the data active = activation above about 50%; inconclusive = about 30% to 50%; inactive = below about 30%; also: 0% is about no effect; the text of the record puts the active cut at 80%
Target sequence (Q9GZU1 whole entry, looked up): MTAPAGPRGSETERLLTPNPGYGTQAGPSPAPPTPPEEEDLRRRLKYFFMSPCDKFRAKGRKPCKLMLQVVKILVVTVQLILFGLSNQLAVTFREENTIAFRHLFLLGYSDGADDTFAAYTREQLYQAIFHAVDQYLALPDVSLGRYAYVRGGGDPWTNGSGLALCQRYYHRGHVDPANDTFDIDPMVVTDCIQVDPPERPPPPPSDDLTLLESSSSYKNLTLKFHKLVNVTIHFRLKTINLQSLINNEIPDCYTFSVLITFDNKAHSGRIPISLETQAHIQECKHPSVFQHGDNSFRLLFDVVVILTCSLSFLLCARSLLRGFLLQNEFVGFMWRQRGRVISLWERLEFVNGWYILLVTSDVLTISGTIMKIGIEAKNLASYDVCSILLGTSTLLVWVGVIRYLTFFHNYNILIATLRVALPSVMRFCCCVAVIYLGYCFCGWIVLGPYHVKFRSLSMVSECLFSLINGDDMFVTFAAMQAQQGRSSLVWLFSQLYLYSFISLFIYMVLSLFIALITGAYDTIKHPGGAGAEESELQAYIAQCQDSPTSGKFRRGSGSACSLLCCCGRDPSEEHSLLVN
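Agonist activity was taken from a 110 s kinetic Ca2+ dye read on the FDSS after pinning compounds onto TRPML1-DL cells. The cells were seeded at 1,500/well with Tet inducer, incubated about 16 h, then dye-loaded at room temperature.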
D2 potentiator = potentiates the human D2 dopamine receptor allosterically; potentiation, % (test concentration not listed); hit rate 0.23% among 360,000; P14416; DiscoveRx D2 beta-arrestin cells, luminescence, 90 min; 100% = 57 uM dopamine signal; active = potentiation of 50% or more; inconclusive = 30% to 50%; inactive = 30% or less;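 also: compound concentration not given in the record; tested on top of an EC20 dose of dopamine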
Target sequence (P14416 whole entry, looked up): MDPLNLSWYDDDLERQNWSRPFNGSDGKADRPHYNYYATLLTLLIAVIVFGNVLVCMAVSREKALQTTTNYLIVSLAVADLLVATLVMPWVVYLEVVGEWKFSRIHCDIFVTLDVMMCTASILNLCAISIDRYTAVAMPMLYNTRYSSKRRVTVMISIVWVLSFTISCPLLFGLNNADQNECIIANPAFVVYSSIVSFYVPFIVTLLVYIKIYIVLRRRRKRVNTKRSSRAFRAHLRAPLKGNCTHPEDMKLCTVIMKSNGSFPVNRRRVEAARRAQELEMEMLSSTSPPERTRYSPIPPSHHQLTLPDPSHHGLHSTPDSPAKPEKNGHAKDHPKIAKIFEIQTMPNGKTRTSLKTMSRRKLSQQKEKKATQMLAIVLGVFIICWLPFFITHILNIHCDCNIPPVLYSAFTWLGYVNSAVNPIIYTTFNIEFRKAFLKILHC
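PathHunter beta-arrestin assay in DiscoveRx D2 cells. Compounds were added with an EC20 of dopamine (50 nM final) for 90 min at 37 deg C. Luminescence was read 1 h after detection reagent, with 57 uM dopamine as the EC100 control.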
D2 ag = activates the human D2 dopamine receptor | hit rate 0.084% among 360,000 | activation, % (test concentration not listed) | DiscoveRx PathHunter D2 beta-arrestin, luminescence, 90 min; 100% = 57 uM dopamine signal | AID 624465; in the data active = activation above about 40%; inconclusive = about 15% to 40%; inactive = below about 15%; also: compound concentration not given in the record; the text of the record calls up to 30% inactive
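Agonist mode: compounds alone added to overnight-plated D2 PathHunter cells for 90 min at 37 C, with 57 uM final dopamine (EC100) defining full response. Beta-arrestin recruitment detected by chemiluminescent reagent, read after 1 h at ambient temperature.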
PINK1 modulator = modulators of PINK1 expression | PINK1 immunofluorescence, high-content cytometry, 24 h | Potency, µM (top dose mostly 76.6 µM), without a hit: at the highest dose activation (PINK1 increase), usual class: activators | hit rate 0.2% among 410,000; active = well fitted activation curve with a large enough effect; inconclusive = small, poorly fitted or top-dose-only effect; inactive = flat fitted curve, though single readings scatter; cell line not stated here;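 also: potency is read from the fitted curve at half-maximal effect; % of control where 0% means no effect; nearly all actives have a fitted effect of over 65% in size; a mitochondrial uncoupler was the plate control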
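Stable cell line treated 24 h with compounds at 5 concentrations (CCCP controls), then fixed and immunostained for PINK1 plus nuclear and cell stains; PINK1 immunofluorescence quantified by laser-scanning microplate cytometry.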
Six1-Eya2 inh = inhibitors of human Six1/Eya2 interaction; Q15475+O00167; AlphaScreen GST-Six1/His-Eya2 binding, biochemical; stronger effect = lower value; control for the full effect not named in the record; activity change, % (test concentration not listed); hit rate 0.56% among 360,000; AID 651725; in the data active = activity change below about -65%; inconclusive = about -30% to -65%; inactive = above about -30%; also: % is scaled to controls: 0 for no effect and ±100 for the full control effect; compound concentration not given in the record
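GST-Six1 + His-Eya2 (5X stock: 250/500 nM); Tris pH 8.0, 300 mM NaCl, 0.05% BSA, 0.02% Tween 20; GSH donor/Ni acceptor beads; 1 h 37 °C dark; AlphaScreen readout.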
TRPML1 blocker = human mucolipin-1 channel inhibition; TRPML1-inducible cells, Ca2+ dye fluorescence, FDSS; stronger effect = lower value; inhibition of EC80 agonist-evoked calcium signal; Q9GZU1; activity change, negative = inhibition, % (test concentration not listed); AID 624415; hit rate 0.02% among 390,000; in the data active means activity change below about -50%; inconclusive means about -30% to -50%; inactive means above about -30%;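 also: stimulus is agonist 54-4 at its EC80 concentration; % is scaled to controls: 0 for no effect and ±100 for the full control effect; compound concentration not given in the record; the text of the record puts the active cut at -80%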
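TRPML1-DL cells, Tet-induced overnight (~16 h, 37 °C) at 1,500 cells/well, were loaded with Ca8 no-wash dye plus quencher for 45-90 min at room temperature. Compounds were pinned during FDSS kinetic reading; agonist 54-4 at EC80 (4 uM final) then added.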
* marks the source's active call; other numbers are inactive results; ? = inconclusive; . = no result given; [ ] = dose if it differs, or a comment.

cpd	compound	Six1-Eya2 inh	TRPML1 blocker	PINK1 modulator	TRPML1 ag	D2 potentiator	D2 ag
1	CCN(CC)C(=O)/C(=C/c1ccc(F)cc1)NC(C)=O	3	6	-1.4%	-0.9	-11	-3.6
2	Cc1nc(SCC(=O)NC2CCCCC2C)c(C#N)c(C)c1C (stereo unspecified)	5	34	7.2%	2.7	-5	-1.9
3	C#CCOc1c(/C=C\c2nc(O)c([N+](=O)[O-])c(=O)[nH]2)cc(Br)cc1OC	8	8	0.0%	-0.7	-25	-4.6
4	Cc1c(NC(=O)CSc2nnc(N)s2)c(=O)n(-c2ccccc2)n1C	14	-8	-1.7%	0.7	-5	-3.3
5	CCSc1nnc(NC(=O)c2cc3c(s2)CCCC3)s1	4	20	?	2.0	1	5.0
6	COc1ccc(-c2nc(SC)n(C(=O)c3ccco3)n2)cc1	2	-13	-0.7%	1.3	-21	-0.6
7	CC(C)C(=O)NNC(=O)c1ccccn1	?	3	5.7%	0.2	-11	-4.3
8	COc1ccccc1Cc1noc(-c2cc(Cl)ccc2OC)n1	12	2	?	3.4	-15	-0.6
9	COc1ccccc1-c1cnc(C(O)c2cc(C)ccc2C)[nH]1 (stereo unspecified)	-6	.	0.4%	-0.8	-11	-3.5
10	NNC(=O)CSc1cccc2cccnc12	-7	-18	5.0%	0.6	-11	-1.8

Molecules from the list above that contain a halogen, in the order listed:
cpd	compound	Six1-Eya2 inh	TRPML1 blocker	PINK1 modulator	TRPML1 ag	D2 potentiator	D2 ag
1	CCN(CC)C(=O)/C(=C/c1ccc(F)cc1)NC(C)=O	3	6	-1.4%	-0.9	-11	-3.6
3	C#CCOc1c(/C=C\c2nc(O)c([N+](=O)[O-])c(=O)[nH]2)cc(Br)cc1OC	8	8	0.0%	-0.7	-25	-4.6
8	COc1ccccc1Cc1noc(-c2cc(Cl)ccc2OC)n1	12	2	?	3.4	-15	-0.6

(more compounds)
cpd	compound	Six1-Eya2 inh	TRPML1 blocker	PINK1 modulator	TRPML1 ag	D2 potentiator	D2 ag
11	Cc1cccc(Cn2c(-c3ccccc3)nc3ccccc32)c1	.	-9	4.7%	4.2	.	.
12	CCOC(=O)c1noc2nc(C)n(Cc3cccc([N+](=O)[O-])c3)c(=O)c12	.	21	30%	-0.5	.	.
13	C[C@@H]1CC=C[C@H]2[C@H]1C(=O)N(Cc1ccccc1)[C@H]2c1ccc(-c2ccoc2)cc1F	12	86	-1.5%	1.3	-6	-1.8
14	O=C(CCCc1ccccc1)NCCc1ccccc1	-3	.	-0.5%	.	23	1.7
15	O=C(CSc1ccc(-c2cccnc2)nn1)Nc1ccc(F)cc1	21	-13	2.0%	1.1	-10	-2.9
16	Cc1[nH]c2ccccc2c1C(=O)CSc1nc2cc(S(=O)(=O)N3CCCCC3)ccc2o1	-19	-15	-0.2%	3.1	9	0.0
17	Cc1oc(-c2ccccc2F)nc1CS(=O)(=O)CC(=O)NCCCN1CC(C)CC(C)C1 (stereo unspecified)	5	18	-1.9%	-0.5	-31	-6.7
18	COc1ccccc1CNC(=O)C1CCCC1	8	-4	3.2%	-0.4	-4	-3.4
19	CN(c1ccc(OCC(=O)OCC(=O)NCc2ccco2)cc1)S(=O)(=O)c1ccc2ccccc2c1	-14	-11	1.3%	2.7	-3	-0.8
20	O=S1CC/C(=N\O)c2ccccc21 (stereo unspecified)	3	-8	2.3%[38.3 µM]	0.0	-2	-0.2
21	Cc1ccccc1-c1noc(CCC(=O)NCc2ccco2)n1	-10	11	-0.7%	0.7	?	2.0
22	CC(C)CNC(=O)/C=C/C=C/c1ccc2c(c1)OCO2	-1	.	0.8%	.	-24	5.7
23	CC(OC(=O)CNS(=O)(=O)/C=C/c1ccccc1)C(=O)Nc1ccc(S(=O)(=O)N2CCCC2)cc1 (stereo unspecified)	-18	3	-0.4%	1.3	7	0.1
24	C[C@H](NC(=O)c1ccco1)C(=O)N1CCCC1	1	-8	2.3%	0.3	-4	4.2
25	COc1ccc(C(=O)N/N=C(/C)c2cccc(NC(=O)c3ccccc3F)c2)cc1	0	7	14%	1.6	4	-1.1
26	CCOc1ccc(NC(=O)CC2C(=O)N(c3ccccc3)C(=O)N2Cc2ccco2)cc1 (stereo unspecified)	8	-7	-1.3%	1.3	2	-2.6
27	N=C1C(c2ccccc2)=C(O)CN1CCO	-15	-10	-0.2%	0.5	0	-4.8
28	Cc1ccc(C)c(C(=O)NC(C)CCc2ccccc2)c1 (stereo unspecified)	4	15	-0.4%	2.7	-6	1.1
29	O=C(NCc1ccc(F)cc1)Nc1nnc([C@@H]2C[C@H](O)[C@@H](CO)O2)s1	-13	.	0.2%	-0.5	-7	-5.6
30	CSc1nnc(-c2cccs2)n1-c1ccccc1	-12	-2	0.2%[38.3 µM]	-0.3	-16	-3.6
31	CCCn1nc(NS(=O)(=O)c2ccccc2[N+](=O)[O-])c2cc3ccccc3nc21	-9	20	-1.3%	-1.0	-12	-2.9
32	N#CCCN1CCN(C(=S)c2ccc(-c3cc(Cl)ccc3Cl)o2)CC1	-13	45	4.3%	-0.4	-26	-1.8
33	COc1ccc(NC(=O)COC(=O)c2cccc(S(=O)(=O)N(C)C)c2)cc1	1	-4	1.2%	0.2	-1	1.9
34	CN(c1ccc(F)cc1)S(=O)(=O)c1ccc(Cl)c(C(=O)Nc2ccncc2)c1	-1	12	1.0%	-1.0	-12	2.4
35	CC(C)CC(N)c1csc(NC(=O)Nc2ccccc2-c2ccccc2)n1 (stereo unspecified)	0	.	0.2%	0.7	-5	2.3
36	COc1cccc(/C=N\NC(=O)c2ccc(Cn3cc(Br)c([N+](=O)[O-])n3)o2)c1O	?	4	2.5%	0.1	1	1.8
37	CN(Cc1nc2ccccc2n1C)S(=O)(=O)c1ccc(F)cc1	0	1	0.6%	-0.1	2	-1.6
38	Cc1cc(C)n(-c2ccc(C(=O)Nc3nnc(C)s3)cc2)n1	5	-7	1.2%	-0.8	-3	1.3
39	CCCCOc1ccc(CN2C(=O)C(=O)c3cc(C)ccc32)cc1OC	.	17	1.9%	2.5	.	.
40	COc1cc(CN2C[C@@H](CO)O[C@@H](n3cnc4c(N(C)C(C)C)ncnc43)C2)cc(OC)c1OC	-2	.	-0.1%	-0.6	5	-0.8
41	CCCOc1ccc(-c2cc(C(=O)NCC3CCCO3)c3ccccc3n2)cc1 (stereo unspecified)	13	30	7.1%	-0.2	-6	-2.0
42	O=c1[nH]c2cc(Cl)c(Br)cc2o1	10	6	-4.3%	1.1	-10	-1.2
43	COc1ccc(C(=O)C2CCCN(C(=O)c3ccc(F)cc3)C2)cc1OC (stereo unspecified)	-2	-5	-0.5%	0.5	5	-1.6
44	Cc1cc(C)c(C(=O)N2CCCC(Nc3ccc(C)c(C)c3)C2)o1 (stereo unspecified)	-18	-8	0.1%	-1.3	-7	6.5
45	CC(=O)NC(c1cccc(F)c1)c1nc(-c2ccc3ccccc3c2)cs1 (stereo unspecified)	-2	.	3.3%	-0.3	0	3.2
46	CCOc1ccc(NC(=O)C2CCCN2S(=O)(=O)c2ccc(OCC)cc2)cc1 (stereo unspecified)	25	-3	-0.4%	0.2	-8	-1.3
47	CC(=O)c1ccc(OC(=O)COc2ccccc2Cl)cc1	11	10	3.1%	-0.1	-2	-3.8
48	COc1ccc(C(=O)NC(=S)Nc2ccc(CN3CCCCC3)cc2)cc1Cl	-29	23	13%	-0.9	-15	-2.5
49	Cc1ccc(C(=O)OCC(=O)N(C)C2CCS(=O)(=O)C2)cc1S(=O)(=O)N1CCOCC1 (stereo unspecified)	1	16	-1.4%	0.1	15	-0.7
50	Cn1c(=O)c2c(ncn2CC(=O)OCC(=O)c2ccc(F)c(F)c2)n(C)c1=O	23	-12	-2.3%	-0.2	-39	-9.9

Next section (5 carried over from the part before).
cpd	compound	Six1-Eya2 inh	TRPML1 blocker	PINK1 modulator	TRPML1 ag	D2 potentiator	D2 ag
46	CCOc1ccc(NC(=O)C2CCCN2S(=O)(=O)c2ccc(OCC)cc2)cc1 (stereo unspecified)	25	-3	-0.4%	0.2	-8	-1.3
47	CC(=O)c1ccc(OC(=O)COc2ccccc2Cl)cc1	11	10	3.1%	-0.1	-2	-3.8
48	COc1ccc(C(=O)NC(=S)Nc2ccc(CN3CCCCC3)cc2)cc1Cl	-29	23	13%	-0.9	-15	-2.5
49	Cc1ccc(C(=O)OCC(=O)N(C)C2CCS(=O)(=O)C2)cc1S(=O)(=O)N1CCOCC1 (stereo unspecified)	1	16	-1.4%	0.1	15	-0.7
50	Cn1c(=O)c2c(ncn2CC(=O)OCC(=O)c2ccc(F)c(F)c2)n(C)c1=O	23	-12	-2.3%	-0.2	-39	-9.9
51	O=C(NCc1cc(C(F)(F)F)ccc1Cl)c1cccc2c1C(=O)c1ccc(N3CCOCC3)cc1S2(=O)=O	8	3	?	2.2	-12	-2.2
52	O=C(Nc1oc2ccccc2c(=O)c1-c1ccc(Cl)cc1)c1ccco1	3	-15	-1.6%	0.1	-14	-3.2
53	O=C(Nc1ccn(CCCNCc2cccc3ccccc23)c(=O)n1)OCc1ccccc1	?	-3	-0.1%	-0.3	-15	-13
54	O=C1c2cccc(OCC(=O)N3CCCc4ccccc43)c2CCN1Cc1ccccc1	1	12	-0.5%	2.0	-15	-2.8
55	CCOc1ccc(-c2nc[nH]c2[N+](=O)[O-])cc1	-5	75	-0.1%	0.1	-3	-6.2
56	O=C(OCCCOC(=O)c1ccc(O)cc1)c1ccc(O)cc1	-9	18	3.0%	1.9	13	-7.1
57	Cc1oc(-c2ccccc2Cl)nc1CS(=O)(=O)CC(=O)NCCN1CCOCC1	3	28	0.5%	-0.3	-1	-3.1
58	C/C(=N/NC(=O)CNC(=O)COc1cccc(C)c1)c1ccco1	5	-13	2.2%	-0.1	-11	1.7
59	NS(=O)(=O)c1ccc(CCNC(=O)COC(=O)C2CCCN2C(=O)c2cccs2)cc1 (stereo unspecified)	5	-4	-4.1%	-0.6	-6	-2.9
60	COCCNC(=O)C1CC(c2cccc(F)c2)=NO1 (stereo unspecified)	2	-2	-0.3%	-0.6	-3	-8.6
61	Cc1cc(OC(C)C(=O)Nc2c(C(=O)c3ccc(F)cc3)oc3ccccc23)ccc1Cl (stereo unspecified)	.	30	1.4%	0.9	.	.
62	COc1ccc(C2CC(c3ccccc3)=NN2C(=O)c2ccc(Cl)c([N+](=O)[O-])c2)cc1 (stereo unspecified)	-20	37	-1.2%	0.1	-5	2.6
63	CCC(=O)Nc1ccc(C(=O)n2ccc(C)n2)cc1	-4	-10	-0.9%	0.2	-6	-3.0
64	Cc1ccccc1NC(=O)Cn1c(=O)n(CCCCC(=O)NCc2ccccc2Cl)c(=O)c2ccccc21	.	-12	2.4%	-0.4	.	.
65	COc1ccc(-c2nnnn2C)cc1S(=O)(=O)Nc1ccc(C)cc1C	2	9	-0.5%	0.2	-2	-5.5
66	CC(C)(C)NC(=O)NC(=O)COC(=O)C1(C)CC1(Cl)Cl (stereo unspecified)	5	2	2.0%	1.2	-8	-3.3

Bioassay records from PubChem.
